# rRNA inh HTS – selective bacterial rRNA inhibition in E. coli | E. coli WT GFP vs humanized-ribosome RFP mutants, fluorescence, 24 h; stronger effect = lower value; DMSO median 0, no signal -100 | GFP signal change (wild-type ribosome), % (concentration not given with the values) | 350,000 tested, 1.6% active;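 active means significant combined selectivity score with lowered wild-type GFP, culture density cut under 30%, mutant RFP and density less affected; inactive means any of these conditions unmet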; further: one replicate is shown; some compounds called inactive have numbers as strong as hits
# rRNA inh HTS OD600 – recorded beside rRNA inh HTS, whose call it bears; OD600 change, %; measured here: OD600 growth;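 optical density of the mix in the first replicate; 0 = DMSO median and -100 = no signal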
# rRNA inh HTS RFP – second read-out of rRNA inh HTS, no call of its own (marks repeat the call); RFP signal change, %; measured here: RFP humanized mutant strains;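 first replicate; 0 = DMSO median and -100 = no signal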
# An asterisk follows results filed as active; & = joins results of further samples.
rRNA inh HTS | rRNA inh HTS OD600 | molecule | rRNA inh HTS RFP
-2 | -5 | CO[C@@H]1CN(C)C(=O)c2cc(NC(C)=O)ccc2OC[C@H](C)N(CC2CCCCC2)C[C@H]1C | 2.3
0 | -2 | CCCN(C)C[C@H]1Oc2cc(C#Cc3cccc(OC)c3)ccc2S(=O)(=O)N([C@H](C)CO)C[C@H]1C | 16
0 | 0 | CCC(=O)Nc1ccc2c(c1)C(=O)N(C)C[C@H](OC)[C@H](C)CN(Cc1nccs1)[C@H](C)CO2 | -1.7
1 | 1 | C[C@@H]1CCCCO[C@@H](CN(C)S(=O)(=O)c2cn(C)cn2)[C@H](C)CN([C@@H](C)CO)C(=O)c2cc(NC(=O)Cc3ccccc3)ccc2O1 | 0.0
3 | 5 | C[C@H](CO)N1C[C@H](C)[C@@H](CN(C)S(C)(=O)=O)OCCCC[C@H](C)Oc2ccc(N(C)C)cc2C1=O | 0.6
4 | 7 | CC(=O)N1CC(=O)N2[C@H](CO)[C@H](c3ccc(-c4ccc(C#N)cc4)cc3)[C@@H]2C1 | -3.4
1 | 4 | C[C@@H]1CN([C@@H](C)CO)C(=O)c2cc(NC(=O)Nc3ccccc3)ccc2O[C@@H](C)CCCCO[C@H]1CN(C)Cc1ccc(Cl)c(Cl)c1 | -4.4
1 | 1 | CC(=O)N(C)C[C@@H]1Oc2ccccc2CC(=O)N(C)C[C@H]1C | 0.3
6 | 7 | COCC#Cc1ccc2c(c1)O[C@@H](CN(C)CC1CCCCC1)[C@@H](C)CN([C@@H](C)CO)S2(=O)=O | -0.8
0 | -4 | CC(C)[C@H]1C(=O)N[C@@H](c2cccc(Cl)c2)CC=CC[C@H](C)Oc2ccccc2C(=O)N1C (mixture of isomers) | 0.9
-40 | -58 | OC(c1ccccc1)(c1ccccc1)C1CCN(CCCOc2ccc(-c3ccc(F)cc3F)cc2)CC1 | -7.1
2 | -1 | CC(C)NC(=O)N(C)C[C@H]1Oc2ccc(NS(C)(=O)=O)cc2C(=O)N(C)C[C@H]1C | -3.7

rRNA inh HTS | rRNA inh HTS OD600 | molecule | rRNA inh HTS RFP
-3 | -10 | COc1ccc(CN(C)C[C@H]2OCCCC[C@H](C)Oc3ccc(NC(=O)Cc4ccccc4)cc3C(=O)N([C@@H](C)CO)C[C@H]2C)cc1 | 1.3
0 | 3 | Cc1ccc(S(=O)(=O)N(C)C[C@@H]2OCCCC[C@@H](C)Oc3ccc(NC(=O)C4CCCCC4)cc3C(=O)N([C@@H](C)CO)C[C@@H]2C)cc1 | 0.5
-4 | -9 | Cc1cc(Oc2cccnc2)ccc1NC(=O)CCc1c[nH]c2ccccc12 | 4.8
-2 | -11 | CO[C@@H]1CN(C)C(=O)c2ccc(NC(C)=O)cc2OC[C@@H](C)N(Cc2cccnc2)C[C@@H]1C | 0.5
3 | 11 | CCCN(C)C[C@H]1Oc2ncc(C#CC3CC3)cc2C(=O)N([C@@H](C)CO)C[C@@H]1C | -1.0
-1 | -4 | C[C@H]1CN([C@@H](C)CO)C(=O)Cc2cc(NS(=O)(=O)c3ccccc3)ccc2O[C@H]1CN(C)S(=O)(=O)c1ccc(F)cc1 | -1.0
-4 | -9 | O=C(Cc1c[nH]c2ccccc12)Nc1ccc(Nc2cccnc2)c(-c2ccc(OC(F)(F)F)cc2)c1 | 4.0
3 | -8 | C/C=C/c1ccc([C@H]2[C@H](CO)N(S(=O)(=O)Cc3ccccc3)C23CN(C(=O)C2CC2)C3)cc1 | 3.7
-8 | -13 | C[C@@H]1CN([C@H](C)CO)C(=O)CCCn2cc(nn2)CO[C@@H]1CN(C)Cc1ccc(Cl)c(Cl)c1 | 2.0
-3 | -11 | Cc1cccc(-c2ccc([C@H]3[C@H](CO)N4C(=O)CN(C(=O)c5cnccn5)C[C@@H]34)cc2)c1 | 3.9
1 | 6 | C[C@H]1CCCCO[C@@H](CN(C)Cc2ccc(C(=O)O)cc2)[C@@H](C)CN([C@@H](C)CO)C(=O)c2cc(N(C)C)ccc2O1 | 2.4
-4 | -6 | CC(=O)N1[C@@H](CO)[C@H](c2ccc(-c3cccc(F)c3)cc2)[C@@H]1CNC(=O)C1CC1 | -1.5

# Two entries drawn at random from the list so far, as already listed:
rRNA inh HTS | rRNA inh HTS OD600 | molecule | rRNA inh HTS RFP
-4 | -9 | O=C(Cc1c[nH]c2ccccc12)Nc1ccc(Nc2cccnc2)c(-c2ccc(OC(F)(F)F)cc2)c1 | 4.0
-4 | -6 | CC(=O)N1[C@@H](CO)[C@H](c2ccc(-c3cccc(F)c3)cc2)[C@@H]1CNC(=O)C1CC1 | -1.5

# An excerpt from above in order of the rRNA inh HTS RFP value, smallest number first.
structure	rRNA inh HTS	rRNA inh HTS OD600	rRNA inh HTS RFP
CC(=O)N1[C@@H](CO)[C@H](c2ccc(-c3cccc(F)c3)cc2)[C@@H]1CNC(=O)C1CC1	-4	-6	-1.5
CO[C@@H]1CN(C)C(=O)c2ccc(NC(C)=O)cc2OC[C@@H](C)N(Cc2cccnc2)C[C@@H]1C	-2	-11	0.5
C[C@@H]1CN([C@H](C)CO)C(=O)CCCn2cc(nn2)CO[C@@H]1CN(C)Cc1ccc(Cl)c(Cl)c1	-8	-13	2.0
C[C@H]1CCCCO[C@@H](CN(C)Cc2ccc(C(=O)O)cc2)[C@@H](C)CN([C@@H](C)CO)C(=O)c2cc(N(C)C)ccc2O1	1	6	2.4
C/C=C/c1ccc([C@H]2[C@H](CO)N(S(=O)(=O)Cc3ccccc3)C23CN(C(=O)C2CC2)C3)cc1	3	-8	3.7

# Next part:
rRNA inh HTS | rRNA inh HTS OD600 | molecule | rRNA inh HTS RFP
2 | -4 | COc1ccc(CN(C)C[C@H]2OCCCC[C@@H](C)Oc3ccc(NS(=O)(=O)c4ccc(OC)cc4)cc3C(=O)N([C@H](C)CO)C[C@@H]2C)cc1 | 0.8
0 | 7 | CNC(=O)C[C@H]1CC[C@@H]2[C@H](COc3ccc(NC(=O)NC(C)C)cc3C(=O)N2C)O1 | -2.4
1 | 4 | COc1cccc(-c2ccc3c(c2)[C@@H]2[C@@H](CCN2S(=O)(=O)c2ccccc2F)[C@@H](CO)N3C)c1 | 1.5
0 | 7 | O=C1CCCCn2cc(nn2)COC[C@@H](c2ccccc2)N1 | 0.3
0 | 8 | C[C@@H]1CCCCO[C@@H](CN(C)C(=O)c2ccncc2)[C@H](C)CN([C@H](C)CO)C(=O)c2cc(NC(=O)NC3CCCCC3)ccc2O1 | 4.6
12 | 10 | Cc1ccc(S(=O)(=O)C[C@@H]2OC[C@H](Cc3ccccc3)N2S(=O)(=O)c2ccc(C)cc2)cc1 | 3.8
21 | 22 | COCc1cc(N2CCNC[C@@H]2C)ccc1N1CCN(Cc2ccccc2)[C@@H](C)C1 | 4.4
-3 | -2 | Cc1noc(C)c1S(=O)(=O)N(C)C[C@@H]1OCCCC[C@@H](C)Oc2ccc(NC(=O)Nc3ccc4c(c3)OCO4)cc2C(=O)N([C@H](C)CO)C[C@@H]1C | -1.6
6 | 16 | CN(C)CC#Cc1ccc([C@@H]2[C@H](CO)N3CCCCN(CC4CCOCC4)C[C@@H]23)cc1 | -0.7
-1 | 1 | CCC(=O)Nc1ccc2c(c1)OC[C@@H](C)N(Cc1nccs1)C[C@@H](C)[C@H](OC)CN(C)C2=O | 1.5
7 | -4 | C[C@@H]1CN(C)C(=O)c2ccccc2O[C@H]1CN(C)S(C)(=O)=O | 3.5
-2 | 0 | C[C@@H]1CN([C@H](C)CO)C(=O)c2cc(NC(=O)c3ccccc3)ccc2O[C@@H](C)CCCCO[C@@H]1CN(C)Cc1ccccc1 | 0.5

# Complete entries from above.
# CNC(=O)C[C@H]1CC[C@@H]2[C@H](COc3ccc(NC(=O)NC(C)C)cc3C(=O)N2C)O1 reads rRNA inh HTS: 0; rRNA inh HTS OD600: 7; rRNA inh HTS RFP: -2.4
# Cc1ccc(S(=O)(=O)C[C@@H]2OC[C@H](Cc3ccccc3)N2S(=O)(=O)c2ccc(C)cc2)cc1 reads rRNA inh HTS: 12; rRNA inh HTS OD600: 10; rRNA inh HTS RFP: 3.8

# (list continues)
rRNA inh HTS | rRNA inh HTS OD600 | molecule | rRNA inh HTS RFP
1 | -4 | Cc1ccc(S(=O)(=O)N(C)C[C@@H]2Oc3ccc(NS(=O)(=O)c4ccccc4)cc3CC(=O)N([C@@H](C)CO)C[C@H]2C)cc1 | 1.2
0 | 1 | C[C@@H]1CN([C@@H](C)CO)C(=O)c2c(c3ccccc3n2C)-c2ccccc2CO[C@H]1CN(C)C(=O)NC1CCCCC1 | -1.2
1&-1 | -2&-3 | CN1C(=O)c2cc(NC(=O)c3cccc(F)c3)ccc2OC[C@H]2O[C@H](CC(=O)NC3CCC3)CC[C@H]21 | -0.9&-0.3
-2 | -2 | C[C@H](CO)N1C[C@H](C)[C@H](CN(C)C(=O)Nc2ccc3c(c2)OCO3)OCCCC[C@H](C)Oc2ccc(NC(=O)NC3CCCCC3)cc2C1=O | -1.2
4 | 6 | C[C@@H]1CN([C@H](C)CO)C(=O)c2cc(NC(=O)C3CCCCC3)ccc2O[C@@H](C)CCCCO[C@@H]1CN(C)C(=O)c1ccncc1 | -2.7
4 | 5 | Cc1ccccc1-c1ccc2c(c1)[C@@H]1C[C@H](N(C)S(=O)(=O)c3ccc(Cl)cc3)[C@H]([C@H](C)O)CN1CC2 | 37
2 | 4 | CO[C@H]1CN(C)C(=O)c2ccc(NS(C)(=O)=O)cc2OC[C@@H](C)N(Cc2ccccn2)C[C@H]1C | 0.7
2 | 1 | CCC(=O)N1C[C@@H](C)[C@H](OC)CN(C)C(=O)c2ccc(NS(C)(=O)=O)cc2OC[C@@H]1C | -0.2
3 | 13 | CC(=O)Nc1ccc2c(c1)C(=O)N(C)[C@H]1CC[C@H](CC(=O)Nc3ccccc3Cl)O[C@@H]1CO2 | -1.2
2 | 9 | Cc1noc(C)c1S(=O)(=O)Nc1ccc2c(c1)C(=O)N([C@H](C)CO)C[C@H](C)[C@H](CN(C)C(=O)CCCN(C)C)OCCCC[C@H](C)O2 | -1.8
1&2 | 7&0 | CN1C(=O)c2cc(NC(=O)c3cccc(F)c3)ccc2OC[C@@H]2O[C@@H](CC(=O)NC3CCC3)CC[C@@H]21 | -3.1&2.0
-5 | -4 | CN1C(=O)c2cc(NC(=O)c3cccs3)ccc2OC[C@@H]2O[C@H](CC(=O)N3CCCCC3)CC[C@@H]21 | -2.9

rRNA inh HTS | rRNA inh HTS OD600 | molecule | rRNA inh HTS RFP
-1 | 0 | C[C@@H]1CN([C@H](C)CO)C(=O)c2cc(NC(=O)Nc3cccc4ccccc34)ccc2O[C@@H](C)CCCCO[C@@H]1CN(C)Cc1ccc2c(c1)OCO2 | 5.0
0 | -7 | CC(C)NC(=O)Nc1cccc2c1O[C@H](CN(C)S(=O)(=O)c1cccs1)[C@H](C)CN([C@H](C)CO)C2=O | -1.8
1 | -4 | O=C(c1ccccc1F)N1CC[C@@H]2[C@H](CO)Nc3ccc(-c4cccc(F)c4)cc3[C@@H]21 | 6.2
1 | 9 | C[C@H]1CN([C@@H](C)CO)C(=O)c2cc(NC(=O)Nc3ccc(C(F)(F)F)cc3)ccc2O[C@@H]1CN(C)S(=O)(=O)c1cccs1 | 2.7
0 | 3 | COCC(=O)Nc1ccc2c(c1)[C@@H]1C[C@@H](CC(=O)NCc3cc(F)ccc3F)O[C@H](CO)[C@@H]1O2 | -0.5
13 | 15 | CCCCCN(C(=O)CCc1cn(CCCCC)c2ccccc12)c1ccc(Oc2cccnc2)cc1 | 1.0
3 | 4 | C[C@H]1CN([C@@H](C)CO)C(=O)c2cccc(NS(=O)(=O)c3cccs3)c2O[C@H]1CN(C)C(=O)Nc1ccccc1 | -0.5
-1 | 0 | C[C@H](CO)N1C[C@H](C)[C@H](CN(C)Cc2ccc(Oc3ccccc3)cc2)Oc2ccc(NC(=O)CCC(F)(F)F)cc2CC1=O | 1.4
-1 | 17 | C[C@@H]1CCCCO[C@@H](CN(C)C(=O)Nc2ccc(C(F)(F)F)cc2)[C@@H](C)CN([C@H](C)CO)C(=O)c2cc(NC(=O)Nc3ccccc3)ccc2O1 | -1.7
-3 | 7 | C[C@@H]1CN(C)C(=O)c2cc([N+](=O)[O-])ccc2O[C@@H]1CN(C)C(=O)OC(C)(C)C | -0.1
-3 | -7 | C[C@@H]1CN([C@@H](C)CO)C(=O)Cc2cc(NC(=O)Nc3ccccc3)ccc2O[C@@H]1CN(C)Cc1ccncc1 | -1.8

# Screening data (PubChem BioAssay)

# These rows are one share of the data, so the mix of outcomes need not match the whole.
